# YopH PTP inh – YopH tyrosine phosphatase inhibitors, primary screen, biochemical, fluorescence Ex485/Em525 | inhibition, %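 (about 10 µM by stock and volumes)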 | YopH tyrosine phosphatase [Yersinia enterocolitica] | 0.16% of 140,000 active | AID 898, 2007;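 active means inhibition of 50% or more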;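 further: controls were vehicle for no effect and minimum signal wells for full effect; inactives centre near -20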
# Mtb bLac sens – beta-lactam sensitization of Mtb H37Rv, H37Rv; M. tuberculosis H37Rv growth with meropenem, percent inhibition; hits of this screen are not shown here; inhibition, % at 25 µM; 0.27% of 330,000 active; AID 434955, 2010;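 active means about 74% or more and at least 40 points above the plate without the antibiotic, then above 30% in a dose series; inconclusive means first-round hits that could not be retested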;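 further: growth measured after seven days incubation then overnight dye step; 0% = bacteria only wells and 100% = bacteria with antibiotic; twin plates without the antibiotic show which effects depend on it; some results filed as inactive read as strong as hits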
# Mtb growth – M. tuberculosis H37Rv growth inhibitors, H37Rv strain (AID 1626). M. tuberculosis H37Rv growth inhibition; higher % means a stronger effect. inhibition, % at 10 µM, or IC50 in µM where a hit was titrated. 0.95% of 220,000 active;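 active means confirmed in a dose series; inconclusive means inhibition above 80% but not taken into the dose series; inactive means below 80% or under 30% at every dose of the series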;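 further: bacteria incubated seven days before Alamar blue readout; 0% = bacteria only wells and 100% = bacteria with antibiotic wells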
# RecA intein inh – Mtb RecA intein splicing inhibitors, primary screen, biochemical, fluorescence, HTS | Protein RecA (Mycobacterium tuberculosis (strain ATCC 25618 / H37Rv)), P9WHJ3 | cell-free RecA intein splicing | inhibition, %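 (about 9 µM by stock and volumes)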 | 0.75% of 290,000 active; in the data active means inhibition above about 30%; inconclusive means no clear call, values can overlap the other calls;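 further: 0% = vehicle wells and 100% = reference inhibitor control wells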
# Target sequence (P9WHJ3 whole entry, looked up): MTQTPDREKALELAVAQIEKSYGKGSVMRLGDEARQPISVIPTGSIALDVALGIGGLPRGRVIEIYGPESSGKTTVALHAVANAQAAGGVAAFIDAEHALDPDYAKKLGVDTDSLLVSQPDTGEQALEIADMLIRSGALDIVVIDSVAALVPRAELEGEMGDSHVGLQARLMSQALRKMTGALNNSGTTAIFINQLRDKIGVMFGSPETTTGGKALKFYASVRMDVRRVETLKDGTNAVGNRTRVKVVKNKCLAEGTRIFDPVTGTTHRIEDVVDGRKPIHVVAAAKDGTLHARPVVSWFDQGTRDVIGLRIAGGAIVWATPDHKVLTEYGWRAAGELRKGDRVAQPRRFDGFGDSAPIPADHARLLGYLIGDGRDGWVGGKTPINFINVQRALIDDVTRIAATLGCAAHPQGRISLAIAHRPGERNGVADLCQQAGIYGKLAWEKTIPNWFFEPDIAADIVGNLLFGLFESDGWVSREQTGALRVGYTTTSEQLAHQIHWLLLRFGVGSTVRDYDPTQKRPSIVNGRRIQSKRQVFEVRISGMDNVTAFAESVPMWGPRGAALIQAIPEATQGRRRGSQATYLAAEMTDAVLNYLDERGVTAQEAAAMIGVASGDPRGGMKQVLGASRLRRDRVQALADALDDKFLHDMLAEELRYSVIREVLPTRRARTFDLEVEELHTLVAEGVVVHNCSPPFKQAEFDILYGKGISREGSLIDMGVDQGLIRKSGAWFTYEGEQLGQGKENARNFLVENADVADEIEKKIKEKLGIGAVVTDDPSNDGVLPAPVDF
# Arbovirus inh – antivirals against arbovirus infection, primary screen, cell-based, full library, 10K replicate subset | 0.37% of 200,000 active | AID 1251, 2008 | inhibition, % at 10 µM | arbovirus infection cell-based antiviral screen;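 active means inhibition from about 30%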;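 further: bluetongue infection of BSR cells; cell survival read as ATP light after 72 h; 0% = infected wells without compound and 100% = uninfected wells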
# Arbovirus inh repeat – further read-out of Arbovirus inh, marked with its call; inhibition, %; measured here: 10K subset replicate screen; many hits read low in the repeat;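 first of two repeat runs on a subset; 0% = infected and 100% = uninfected wells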
# * hit, by the source's call; ? = inconclusive; . = no result given; & = joins results of further samples. The list is partial; the hit share may differ from the screen's.
SMILES,YopH PTP inh,Mtb bLac sens,Mtb growth,RecA intein inh,Arbovirus inh,others
Cc1ccc2c(Cl)cc(Cl)c(OCC(=O)N3CCCC3)c2n1,.,2,5%,2.1,2,
O=C(CCn1cnc2ccccc21)N/N=C/C=C/c1ccccc1,.,-4,1%,3.4,.,
COC(=O)c1ccc(NC(=O)Cn2nnc3ccccc32)cc1,25,3,-9%,0.5,13,
Oc1ccc(N=Nc2ccccc2)o1,.,58,.,2.7,.,
CC1CC(NC(=O)N(C)C)N(C)C(=O)N1 (stereo unspecified),-21,-4,5%,-2.4,-3,
CCOCCn1c(=NC(=O)CSCC(=O)N2CCOCC2)sc2cc(OC)ccc21,.,-19,.,-0.1,.,
CC1CN(c2sc(S(C)(=O)=O)nc2S(=O)(=O)c2ccc(Cl)cc2)CC(C)O1 (stereo unspecified),.,1,.,-1.7,.,
Cc1ccccc1N1CC(=O)N(c2ccccc2C)CC1=O,-2,-13,-5%,-1.4,0,
COc1ccc(OC)c(CNC(=O)CCCc2cn(C)c3ccccc23)c1,-28,-2,.,5.3,5,
Cc1ccc(S(=O)(=O)N(C)c2ccc(OCC(=O)N3CCCCC3)cc2)cc1,.,3,.,-1.6,.,
c1ccc(-c2noc(-c3ccc4ccccc4c3)n2)nc1,-25,10,1%,0.3,3,
COc1ccc(C(=O)/C=C/Nc2ccc(S(=O)(=O)Nc3onc(C)c3C)cc2)cc1,-13,-5,3%,0.3,3,
O=C1CC(c2cccnc2)=NN1c1ccc(Cl)cc1Cl,.,-3,-6%,-3.1,2,
O=c1c2ccccc2nc(Cc2ccccc2)n1-c1ccccc1O,.,-3,0%,2.3,.,
CC(C)CN1C(=O)C(=Nc2cccnc2)c2ccccc21,.,6,3%,0.4,-4,
C=CCN1C(=O)CN=C1Nc1cc(C)cc(C)c1,-30,-9,1%,0.2,9,
CC12CC3(C)CC(C)(C1)CC(C(N)=O)(C2)C3,.,7,0%,-2.9,1,
COc1cccc(-c2csc3nnc(SCC(=O)c4ccc(NC(C)=O)cc4)n23)c1,14,-5,-3%,0.3,5,
Cc1ccc(C(=O)N2CCN(c3ccc([N+](=O)[O-])cc3-n3cccc3)CC2)cc1,.,71,34%,18,.,
O=C(c1ccc(F)cc1)c1ccc(N2CCCCC2)cc1,.,5,.,-2.0,.,
CCOC(=O)Nc1nc(-c2ccc(F)cc2F)cs1,-12,2,3%,3.3,-1,
COc1ccc(/C=C2\SC(=S)N(CCCC(=O)NC3CCCC3)C2=O)cc1OC,.,6,.,-2.3,.,
O=C(CCc1nc(-c2ccccn2)no1)NCc1ccc2c(c1)OCO2,.,-5,-7%,0.1,.,
COc1ccc(OCC(=O)N2CCN(C(=O)COc3ccc(Br)cc3)CC2)cc1,9,?,-2%,1.7,9,
c1csc(Cn2c(-c3cccs3)nc3ccccc32)c1,-18,6,-2%,-1.6,10,
O=C(COC(=O)c1ccco1)NCC1CCCO1 (stereo unspecified),-9,?,-2%,2.1,2,
Cc1cccc(CCNC(=O)C2CCCN(c3ncnc4c3nc3n4CCCCC3)C2)c1 (stereo unspecified),.,-1,.,1.2,.,
Cc1onc(-c2ccccc2)c1C(=O)NC(C)C1CCCO1 (stereo unspecified),-22,-6,-3%,0.0,6,
CC(C)OP(=O)(OC(C)C)C(Nc1ccccc1)c1ccccc1C(F)(F)F (stereo unspecified),-10,3,2%,-1.1,-8,
O=C(CSc1nnnn1C1CCCC1)Nc1ccccc1F,.,-3,4%,0.8,.,

# The list goes on, overlapping the part above by four compounds.
SMILES,YopH PTP inh,Mtb bLac sens,Mtb growth,RecA intein inh,Arbovirus inh,others
Cc1cccc(CCNC(=O)C2CCCN(c3ncnc4c3nc3n4CCCCC3)C2)c1 (stereo unspecified),.,-1,.,1.2,.,
Cc1onc(-c2ccccc2)c1C(=O)NC(C)C1CCCO1 (stereo unspecified),-22,-6,-3%,0.0,6,
CC(C)OP(=O)(OC(C)C)C(Nc1ccccc1)c1ccccc1C(F)(F)F (stereo unspecified),-10,3,2%,-1.1,-8,
O=C(CSc1nnnn1C1CCCC1)Nc1ccccc1F,.,-3,4%,0.8,.,
Cc1ccc(N(C)C(=O)n2cnc3ccccc32)cc1,.,5,-3%,3.3,4,
COc1ccc(OC)c(NC(=S)N(CCc2c(C)[nH]c3ccccc23)Cc2cccs2)c1,-17,4,.,8.9,-7,
CCCCOC(=O)C(C#N)c1nc2ccccc2nc1N1CCN(Cc2ccc3c(c2)OCO3)CC1 (stereo unspecified),-13,79,?,-25,-13,
O=C(CCn1nnc2ccccc21)N1CCN(c2ccccc2)CC1,-33,4,.,-2.5,8,
Cc1ccn2cc(CNS(=O)(=O)c3ccc4ccccc4c3)nc2c1,.,?,.,-1.0,.,
COc1ccccc1NC(=O)Nc1ccc(N2CCOCC2)cc1,.,-1,4%,-3.5,-14,
Nc1cc(Nc2ccc(Br)cc2)nc(N)n1,.,-8,-10%,1.5,.,
CN1CCN(C(=O)c2ccccc2NC(=O)c2ccccc2Br)CC1,.,-10,.,-0.2,.,
O=C(CCc1nnc(CCCc2ccccc2)o1)NCCc1ccccc1,.,-1,2%,-1.9,1,
COc1ccc(C(=O)Nc2ccc3c(c2)nc(CN2CCCC2)n3C)cc1,.,-9,0%,-3.0,-3,

# Some of these compounds in order of SMILES length, rising.
SMILES,YopH PTP inh,Mtb bLac sens,Mtb growth,RecA intein inh,Arbovirus inh,others
Nc1cc(Nc2ccc(Br)cc2)nc(N)n1,.,-8,-10%,1.5,.,
Cc1ccc(N(C)C(=O)n2cnc3ccccc32)cc1,.,5,-3%,3.3,4,
COc1ccccc1NC(=O)Nc1ccc(N2CCOCC2)cc1,.,-1,4%,-3.5,-14,
COc1ccc(C(=O)Nc2ccc3c(c2)nc(CN2CCCC2)n3C)cc1,.,-9,0%,-3.0,-3,
CCCCOC(=O)C(C#N)c1nc2ccccc2nc1N1CCN(Cc2ccc3c(c2)OCO3)CC1 (stereo unspecified),-13,79,?,-25,-13,

# Continuation.
SMILES,YopH PTP inh,Mtb bLac sens,Mtb growth,RecA intein inh,Arbovirus inh,others
CCOC(=O)C1=C(C)N(c2ccccc2)C(=O)/C1=C\c1ccco1,-20,5,-17%,-7.4,3,
S=C(NC1CCCC1)N1CCN(c2ccc(Cl)cc2)CC1,.,-2,-9%,2.6,6,
C=CCC(CC=C)(NC(=O)c1ccccc1)c1ccccc1,-24,4,2%,-0.8,-8,
CNc1nccc(-c2ccc(Cl)cc2)c1C#N,.,1,-3%,-1.7,0,
COCCOC(=O)C1=C(C)N(c2ccccc2)C(=S)NC1c1ccccc1C(F)(F)F (stereo unspecified),.,80,9%,-1.1,17,
COc1ccccc1OCC(=O)Nc1ccc(S(=O)(=O)N2CCOCC2)cc1,.,-6,.,0.1,.,
CCOC(=O)Cc1nnc(NC(=O)CSc2ccc(Cl)cc2)s1,-8,5,0%,-2.4,3,
Cc1c(C(=O)NC(=S)NCc2cccnc2)oc2ccccc12,.,1,3%,12,-6,
C(=C\c1ccco1)/C1=NN(c2ccccc2)C(c2ccco2)C1 (stereo unspecified),1,12,6%,-193,-6,
CCc1nnc(NC(=O)c2ccc(S(=O)(=O)N(CC)Cc3ccccc3)cc2)o1,-12,87,?,1.2,-15,
Cc1ccc(S(=O)(=O)c2c(C)cc(C)nc2Oc2cccc(C(F)(F)F)c2)cc1,-12,-1,1%,8.9,-17,
CC(C)OCCCn1c(=N)c(S(=O)(=O)c2ccccc2)cc2c(=O)n3ccccc3nc21,.,9,.,0.4,.,
Cn1c2c(c(=O)n(C)c1=O)C(c1ccccc1Cl)CC(=O)N2 (stereo unspecified),-48,-1,2%,-0.6,1,
COc1ccc(/C=C2\CCn3c2nc2cc(C(=O)O)ccc2c3=O)cc1O,-24,5,1%,-1.3,-5,
c1ccc(-c2nc3cc4ccccc4cc3[nH]2)nc1,-23,89,-4%,3.6,-16,
Cc1ccc(NC(=O)[C@@H](C)NC(=O)[C@@H]2Cc3ccccc3CN2)cc1,.,-6,.,-2.0,.,
COc1ccc(C2/C=C\CN(S(=O)(=O)c3cccs3)CC(=O)N2Cc2ccc(F)cc2)cc1 (stereo unspecified),.,-1,-11%,6.4,.,
CCN(CC)C(=O)CSc1nc(O)c(Cc2ccccc2)c(=O)n1-c1ccccc1,-11,-3,4%,2.0,7,
Cc1nnc(N(C)C(=O)c2ccccn2)s1,0,-8,.,-0.3,1,
Cn1c(=O)cc(SCC(=O)Nc2ccccn2)c2ccccc21,-26,-4,-10%,-2.8,2,
COc1ccc(C(CNC(=O)COc2ccccc2-c2ccccc2)N2CCOCC2)cc1 (stereo unspecified),.,10,3%,11,-10,
CCc1cc(=O)[nH]c(SCC(=O)Nc2cc(C)on2)n1,.,-3,.,-2.7,.,
C=CCc1cc(OC)ccc1OCC(O)CN1CCN(c2ccc(OC)cc2)CC1 (stereo unspecified),-17,-6&1,6%&1%,-2.7&-1.3,12&5,
Nc1c(S(=O)(=O)O)cc(NC(=O)c2ccccc2)c2c1C(=O)c1ccccc1C2=O,.,13,.,13,.,
CCCCNC(c1ccccc1)c1ccncc1 (stereo unspecified),-28,1,-7%,-0.9,5,
COc1ccc2c(=O)c3c(=O)n(-c4ccc(C)cc4)c(-c4ccccc4)nc3oc2c1,.,-2,4%,-2.2,.,
Cc1ccc(N(C(=O)CCC(=O)Nc2nccs2)C(C(=O)NC(C)(C)C)c2ccc(O)cc2)cc1 (stereo unspecified),.,3,-4%,2.5,0,
CN(C)C(=O)CN(c1ccc2c(c1)OCO2)S(C)(=O)=O,6,4,-3%,0.2,6,
C=CCNc1nc(-c2cccs2)c(CC(=O)O)s1,.,0,2%,-0.9,.,
CC1CCN(c2[nH]c(=S)c(C#N)c3c2CCCC3)CC1,-20,-1,1%,2.3,-1,
O=C(Cc1ccccc1)NCc1ccc2c(c1)OCO2,1,-10,0%,-0.4,-7,
CC1Cc2nc(SCC(N)=O)n(C)c(=O)c2S1 (stereo unspecified),1,3,6%,-2.4,8,
NC(=O)CC(NC(=O)Cc1ccc(Br)cc1)c1ccc(NCCN2CCCCC2)c([N+](=O)[O-])c1 (stereo unspecified),.,-2,.,0.2,.,
Cc1cccc(CN2CCN(c3nc4nonc4nc3NC3CC3)CC2)c1,.,-7,1%,-0.7,7,
Cc1cc(C(=O)N/N=C/c2cccnc2)c(C)o1,-11,-16,3%,1.2,3,
CCOC(=O)Cc1csc(NC(=O)c2cccs2)n1,-25,-9,-6%,1.6,0,
COc1cc(/C=C/c2ccc3cccc(OC)c3n2)c(OC(C)=O)c([N+](=O)[O-])c1,-2,-11,-3%,1.2,-19,
CC(C)n1nccc1NC(=O)Nc1ccccc1,.,3,.,-2.4,.,
O=C(COC(=O)c1cccnc1Cl)Nc1ncc(Cl)cc1Cl,.,1,-1%,1.7,6,
COc1ccc(CN(C)CC(=O)Nc2cccc(S(N)(=O)=O)c2)c(OC)c1OC,.,2,-6%,-0.5,0,
CCOC(=O)C(CCCCOc1ccc([N+](=O)[O-])cc1)C(=O)OCC,-5,92,5%,7.2,1,
Cc1nc(Nc2cccc(C(C)O)c2)c2nnn(Cc3ccc(F)cc3)c2n1 (stereo unspecified),.,0,11%,4.8,-18,
CCn1cc(C(=O)NCCCOC)c(=O)c2cc(S(=O)(=O)N(C)C)ccc21,-13,1,-11%,-0.3,6,Arbovirus inh repeat=2
O=C(N/N=C/c1ccc(Cl)cc1)C1CC12CCC2 (stereo unspecified),.,-2,0%,0.7,-11,
COc1ccc(S(=O)(=O)Nc2ccccn2)cc1C,.,2,0%,-0.8,5,
CC(NS(=O)(=O)c1c(N)n(C)c(=O)n(C)c1=O)c1ccccc1 (stereo unspecified),.,-10,.,0.9,.,
COCCN(CCOC)C(=O)COC(=O)c1ccc(Cl)c(S(=O)(=O)N(C)c2ccccc2)c1,.,1,1%,-3.6,-3,
C=CCn1c(Oc2ccccc2)nc2c1c(=O)n(C)c(=O)n2C,.,-5,-4%,4.4,15,
Cc1cc(C)cc(OCC(=O)Nc2cccc(-c3nc4ncccc4o3)c2)c1,-31,-4,1%,3.2,-4,Arbovirus inh repeat=-8
Cc1nc(-c2ccc(Cl)cc2)sc1C1(C)CC(c2ccccc2Br)=NO1 (stereo unspecified),.,-1,-1%,0.7,.,
# Other results.
SMILES,YopH PTP inh,Mtb bLac sens,Mtb growth,RecA intein inh,Arbovirus inh,others
O=[N+]([O-])c1ccc(/C=C/c2ccc3cccc(O)c3n2)cc1,.,78,.,0.6,.,
Cc1cc(=O)[nH]c(SCC(=O)NCCc2ccccc2)n1,-5,-6,.,1.7,-3,
Cc1ccccc1OCC(=O)NN1Cc2ccccc2C1=N,7,-12,1%,-0.2,0,
CC(C)(C)c1[nH]nc2c1C(C1C=CCCC1)C(C#N)=C(N)O2 (stereo unspecified),-2,2,-3%,1.3,12,
